TRPML1 agonist: activates the human TRPML1 channel; Q9GZU1; AID 624414; actives 0.12% (n = 410,000); TRPML1-expressing cells, Ca2+ dye fluorescence, FDSS; host cell line not named in the record; reference of the full effect not given here; activation, % (concentration not given with the values); in the data active = activation above about 50%; inconclusive = about 30% to 50%; inactive = below about 30%; also: 0% is about no effect; the text of the record puts the active cut at 80%
Target sequence (Q9GZU1 whole entry, looked up): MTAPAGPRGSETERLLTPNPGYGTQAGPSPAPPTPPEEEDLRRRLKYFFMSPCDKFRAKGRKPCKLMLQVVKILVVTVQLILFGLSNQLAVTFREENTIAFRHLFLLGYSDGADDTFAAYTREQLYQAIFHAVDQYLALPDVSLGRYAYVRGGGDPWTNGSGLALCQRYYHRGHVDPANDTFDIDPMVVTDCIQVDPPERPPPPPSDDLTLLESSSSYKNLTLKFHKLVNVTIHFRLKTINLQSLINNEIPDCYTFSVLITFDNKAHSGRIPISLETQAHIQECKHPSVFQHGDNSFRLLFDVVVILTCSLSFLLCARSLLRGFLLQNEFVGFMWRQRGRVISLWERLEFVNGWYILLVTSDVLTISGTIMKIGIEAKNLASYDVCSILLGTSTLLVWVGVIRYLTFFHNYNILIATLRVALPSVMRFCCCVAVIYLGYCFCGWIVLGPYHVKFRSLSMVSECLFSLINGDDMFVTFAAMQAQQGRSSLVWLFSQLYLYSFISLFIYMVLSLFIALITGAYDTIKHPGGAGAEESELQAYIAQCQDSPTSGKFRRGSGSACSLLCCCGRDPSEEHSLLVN
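Tet-induced TRPML1-DL cells, 1,500 per well, cultured overnight, were loaded with a no-wash Ca2+ dye for 45–90 min. Calcium fluorescence was recorded on the FDSS for 110 s after compound addition, before the EC80 agonist (4 uM 54-4) was added.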
Six1-Eya2 blk: inhibitors of human Six1/Eya2 interaction. activity change, % (test concentration not listed). actives 0.56% (n = 360,000). AID 651725. AlphaScreen GST-Six1/His-Eya2 binding, biochemical; hits give low values; control for the full effect not named in the record; in the data active = activity change below about -65%; inconclusive = about -30% to -65%; inactive = above about -30%; also: % is scaled to controls: 0 for no effect and ±100 for the full control effect; compound concentration not given in the record
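AlphaScreen with GST-Six1 and His-Eya2 (5X mix: 250 nM and 500 nM), glutathione donor and nickel acceptor beads; buffer 50 mM Tris pH 8.0, 300 mM NaCl, 1 mM TCEP; 1 h at 37 C in the dark.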
D2 potentiator: positive allosteric modulators of human D2 dopamine receptor; potentiation, % (concentration not given with the values); actives 0.23% (n = 360,000); P14416; DiscoveRx D2 beta-arrestin cells, luminescence, 90 min; 100% = 57 uM dopamine signal; active = potentiation of 50% or more; inconclusive = 30% to 50%; inactive = 30% or less;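 also: compound concentration not given in the record; tested on top of an EC20 dose of dopamine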
Target sequence (P14416 whole entry, looked up): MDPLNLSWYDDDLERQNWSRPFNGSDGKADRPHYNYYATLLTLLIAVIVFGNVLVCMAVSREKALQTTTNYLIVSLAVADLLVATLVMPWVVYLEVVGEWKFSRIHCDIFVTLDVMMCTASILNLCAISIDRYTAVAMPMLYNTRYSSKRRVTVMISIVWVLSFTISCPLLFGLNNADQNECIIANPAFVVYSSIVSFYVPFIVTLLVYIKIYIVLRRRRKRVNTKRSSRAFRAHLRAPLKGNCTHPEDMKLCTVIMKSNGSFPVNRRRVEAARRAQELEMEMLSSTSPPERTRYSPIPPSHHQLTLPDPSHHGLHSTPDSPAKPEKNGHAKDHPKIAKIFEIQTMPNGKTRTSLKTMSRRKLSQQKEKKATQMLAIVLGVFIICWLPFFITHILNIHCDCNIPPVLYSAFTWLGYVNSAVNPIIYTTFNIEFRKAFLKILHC
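PathHunter D2 cells, attached overnight at 37 deg C, received compound in DMSO plus dopamine at EC20 (50 nM final) for 90 min at 37 deg C. Beta-arrestin recruitment was read as luminescence after 1 h with detection reagent at ambient temperature.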
TRPML1 blocker: human mucolipin-1 channel inhibition; activity change, negative = inhibition, % (no concentration beside the values); actives 0.02% (n = 390,000); TRPML1-inducible cells, Ca2+ dye fluorescence, FDSS; hits give low values; inhibition of EC80 agonist-evoked calcium signal; Q9GZU1; in the data active means activity change below about -50%; inconclusive means about -30% to -50%; inactive means above about -30%;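 also: stimulus is agonist 54-4 at its EC80 concentration; % is scaled to controls: 0 for no effect and ±100 for the full control effect; compound concentration not given in the record; the text of the record puts the active cut at -80%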
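Tet-induced TRPML1-DL cells loaded with Ca8 no-wash calcium dye were read kinetically on FDSS. Compound addition was followed by EC80 agonist 54-4 (4 uM final); inhibition was read over 110 s.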
D2 ag: human D2 receptor agonism in beta-arrestin assay; AID 624465; activation, % (no concentration beside the values); actives 0.084% (n = 360,000); P14416; DiscoveRx PathHunter D2 beta-arrestin, luminescence, 90 min; 100% = 57 uM dopamine signal; in the data active = activation above about 40%; inconclusive = about 15% to 40%; inactive = below about 15%; also: compound concentration not given in the record; the text of the record calls up to 30% inactive
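DiscoveRx PathHunter D2 beta-arrestin cells (2,100/well) attached overnight, then compound-stimulated 90 min at 37 C in HBSS/10 mM HEPES/0.1% Tween-20 buffer; beta-galactosidase complementation read by luminescence after 1 h at ambient temperature. Dopamine 57 uM final (EC100) as control.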
PINK1 expr mod: changes PINK1 expression. PINK1 immunofluorescence, high-content cytometry, 24 h. Potency, µM (doses to about 76.6 µM), without a hit: at the top dose activation (PINK1 increase), actives largely listed as activators. actives 0.2% (n = 410,000). AID 624263; active = well fitted activation curve with a large enough effect; inconclusive = small, poorly fitted or top-dose-only effect; inactive = flat fitted curve, though single readings scatter; cell line not stated here;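 also: potency is read from the fitted curve at half-maximal effect; % of control where 0% means no effect; nearly all actives have a fitted effect of over 65% in size; a mitochondrial uncoupler was the plate control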
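PINK1 protein level read as immunofluorescence by microplate cytometer in a fixed, stained stable cell line after 24 h exposure to five compound concentrations, with CCCP as control.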
Numbers without * were called inactive; ? = inconclusive; . = no result given; [ ] = dose if it differs, or a comment. Not a hit list, and some 1% of all compounds hit somewhere here.

SMILES	TRPML1 agonist	Six1-Eya2 blk	D2 potentiator	TRPML1 blocker	D2 ag	PINK1 expr mod
COc1ccc(-n2c(SCC(=O)NNC(=O)c3ccccc3C)nnc2-c2ccncc2)cc1	3.4	5.2	7.5	12.2	-1.6	8.0%[38.3 µM]
CCN1C(=O)c2ccc(C(=O)NCc3ccco3)cc2C1=O	-0.3	-6.4	-4.6	11.8	-3.6	1.9%
Cc1noc(C)c1S(=O)(=O)N(C)C[C@H]1Oc2ccc(NC(=O)NC(C)C)cc2C(=O)N([C@H](C)CO)C[C@@H]1C	0.1	0.7	-1.7	20.4	-3.4	2.8%
CC(=O)c1cccc(NC(=O)Cn2nc(-c3ccccc3Cl)ccc2=O)c1	-0.3	5.7	-8.9	-3.3	-5.2	1.2%
COCCN1C(=O)/C(=C/c2ccc(N3CCCC3)cc2C)SC1=S	29.2	-5.8	-8.0	-14.6	0.6	22.4µM*
CC(C)NC(=O)C(=O)Nc1cc2c3c(c1)C(C)C(=O)N3CCC2 (stereo not given)	-0.6	4.6	1.0	-5.9	-3.3	5.3%
Cc1nc2ccc(NC(=O)Cc3cccs3)cc2s1	-0.4	-2.3	-7.1	0.3	1.6	-0.5%
CC(NC(=O)c1cccc(Nc2nc3ccccc3n3nnnc23)c1)c1ccccc1 (stereo not given)	1.0	.	.	-4.4	.	23.1%
COc1ccc2c(c1OC)C(=O)N1C2SC[C@H]1C(=O)NCCC(C)C (stereo not given in full)	.	-0.1	-9.8	.	-4.5	2.0%
CC(NC(=S)NNS(=O)(=O)c1cccc([N+](=O)[O-])c1)c1ccccc1 (stereo not given)	-0.6	2.2	1.1	11.7	0.0	-1.6%
CCc1ccc2c(c1)NC(=O)C2(C)Cc1ccc(F)cc1 (stereo not given)	-0.8	-12.5	-1.6	.	5.1	3.8%
COC(=O)NNC(=O)c1ccc(C(C)(C)C)cc1	0.5	26.2	-16.6	-8.5	-1.7	-1.4%
O=C(CSc1ccccc1)Nc1ccc(Cl)c(S(=O)(=O)N2CCOCC2)c1	0.2	-1.8	0.3	-17.5	-1.6	-2.2%
Cc1c(C(=O)O)nn(-c2ccccc2)c(=O)c1C#N	-0.1	1.6	6.8	36.0	-4.6	-0.2%
O=C(O)C(Cc1ccccc1)NS(=O)(=O)c1ccc2c(c1)OCCO2 (stereo not given)	0.6	6.0	-4.1	5.6	-3.2	-0.1%
CC1=C(C#N)C(=O)OC(C)(C)C1	1.2	-2.0	-1.2	1.4	-1.2	1.0%
CC(CC(=O)Nc1ccc2c(c1)c(=O)n(C)n2-c1ccccc1F)c1ccccc1 (stereo not given)	-0.7	-0.9	-7.1	.	-3.2	3.4%
Cc1cc(C)n(-c2c(F)c(F)c(CN3CCCCC3)c(F)c2F)n1	-0.3	-8.5	-13.1	2.2	-2.1	2.0%
CC(=O)Nc1cccc(NC(=O)C(=O)NCC(c2ccco2)N2CCc3ccccc32)c1 (stereo not given)	3.6	-12.0	-0.9	13.2	-4.8	3.0%
COc1ccc(N2CCN(C(=O)c3cc4c(s3)-c3c(C)cccc3OC4)CC2)cc1	-0.9	.	.	-22.3	.	0.1%
Cc1nc(SCC(=O)NC2CCS(=O)(=O)C2)c2c(C)c(C)sc2n1 (stereo not given)	-0.7	-1.4	-4.0	32.3	10.5	0.1%
COc1ccc(OC)c(C(=O)NC2CCCc3c2cnn3-c2cc(C)cc(C)c2)c1 (stereo not given)	0.0	-6.2	-5.8	0.5	0.9	1.0%
O=C(CNC(=O)c1ccccc1)N/N=C/c1ccccc1Cl	-1.5	6.6	-7.9	-0.3	1.6	4.6%
CC(=O)c1cc(-c2ccccc2)n(CCC(=O)NCc2cccs2)c1C	1.4	-16.3	4.4	-2.2	-0.3	1.5%
O=C1CCCC(O)=C1C(C#Cc1ccccc1)C1=C(O)CCCC1=O	0.2	1.5	7.8	4.1	3.9	-2.9%
CCOc1ccc(CNC(=O)c2cnc3sc(N(CC)CC)nn3c2=O)cc1OC	-0.4	.	.	-0.6	.	-0.8%
O=C(NCCc1ccccn1)c1nc(Cn2cc(Br)cn2)no1	0.3	0.5	-5.2	-17.4	-1.0	0.6%
CCc1ccccc1NC(=O)c1cc(S(=O)(=O)N(CC)c2ccccc2)ccc1F	0.2	.	.	0.1	.	-0.2%
COc1ccccc1Nc1ncnc2c1c(C)c(C)n2CCCN(C)C	.	-15.8	-17.1	.	-8.2	1.3%
CCOC(=O)C1CCCN(C(=O)c2ccc(S(=O)(=O)NCc3ccco3)cc2)C1 (stereo not given)	-0.5	7.1	8.8	-7.7	-4.2	-1.9%
O=C(Nc1ccc2oc(-c3ccccc3)nc2c1)c1ccncc1	0.8	-4.4	-0.2	46.1	-0.1	2.6%
Cc1cc(C)c2[nH]c(=O)c(C(c3nnnn3CC3CCCO3)N3CCC(C)CC3)cc2c1 (stereo not given)	-0.8	0.0	-25.6	3.6	-1.9	?
CCOC(=O)[C@]12CCCC=C1N(Cc1cccc3ccccc13)C(=O)[C@H](CC(=O)NCc1cccc(C(F)(F)F)c1)C2	-0.5	-3.8	.	.	.	-0.5%
OC(C#CCN1CCOCC1)(c1ccccc1)C1CCCCC1 (stereo not given)	1.6	1.9	-54.8	24.3	-1.0	0.9%
CCSc1nnc(-c2ccc(S(=O)(=O)N3CCOCC3)cc2)n1CC1CCCO1 (stereo not given)	0.4	-7.0	20.8	-19.2	-3.1	-0.5%[38.3 µM]
O=C(O)c1cc(Cl)n[nH]c1=O	-0.2	8.8	-6.7	.	-3.9	0.1%
O=C(/C=C/c1ccc(Cl)cc1)NC(=S)Nc1ccc(CN2CCOCC2)cc1	1.3	-3.2	-20.7	-16.3	1.3	7.8%
O=C(O)c1ccccc1-c1ccccc1C(=O)NCc1ccccc1Cl	-0.1	3.2	-5.2	1.6	-1.3	-0.3%
COc1cc(C(=S)N2CCOCC2)ccc1O	-0.5	2.4	-4.8	-8.6	-0.8	-0.7%
CCOc1cccc(N2C(=O)CC(n3cnc4ccccc43)C2=O)c1 (stereo not given)	-0.7	-1.7	-16.4	-1.4	0.0	-0.5%
Cc1ccc(NC(=O)CCNC(=O)N2CC(=O)Nc3ccccc32)cc1Cl	-0.8	-4.2	-26.2	10.7	-2.2	-0.6%
CSc1scc2c1-c1nc(SCC(=O)C(C)(C)C)ncc1CC2	1.2	16.4	-18.5	-3.9	-5.3	0.8%
COC(=O)C(C)N=Cc1ccccc1 (stereo not given)	0.4	9.4	-5.8	-9.7	-3.0	3.4%
CC(=O)c1c(C)[nH]c(=S)c(C#N)c1-c1ccc(F)cc1	-0.4	3.1	-21.5	8.2	-7.4	0.7%
N#Cc1ccc(CN2C(=O)NC3(CCCCCC3)C2=O)cc1	0.5	4.6	-2.8	24.7	-0.6	-0.2%
COc1ccc(C(=O)N2CCc3[nH]nc(-c4ccccc4)c3C2)cc1	-0.9	12.4	0.5	-6.5	3.7	0.0%
N#Cc1ccc(C23OCCN2CCn2c3c3ccccc3[n+]2[O-])cc1 (stereo not given)	0.4	-2.8	1.6	-7.7	3.2	-0.5%
N#Cc1ccc(-c2ccc(F)cc2)nc1Sc1ccccc1	0.1	7.7	-7.6	15.5	-2.2	?
Cc1ccc(S(=O)(=O)N2CCN(C(=O)c3ccco3)CC2)cc1	0.7	-6.1	-19.9	3.7	-4.2	0.1%
CCOC(=O)c1c(O)c2ccccc2n(CC)c1=O	1.2	-5.9	-14.1	15.7	0.9	-1.0%
O=C(c1ccc(Cl)c(Cl)c1)c1cc(-c2ccccn2)c(N2CCOCC2)s1	8.5	35.4	-34.1	3.7	-5.1	-0.2%
CCN(CC)C(=O)Cn1cc(S(=O)(=O)CC(=O)Nc2ccccc2C)c2ccccc21	0.0	-6.1	-11.3	-1.1	0.6	1.5%
CCc1ccccc1Oc1nc(NC(C)C)nc2ccsc12	1.5	15.0	5.1	.	2.0	?
Cc1c2c(nc3nc4ccccc4n13)CC(C)(C)CC2=O	-0.2	-2.2	-6.4	3.9	-2.2	-1.1%[38.3 µM]
CSc1nc(-c2ccccc2)nc(NC(=O)c2ccccc2)c1C(C)=O	0.2	-0.5	-2.2	-4.5	-3.3	7.5%
COc1ccc(CCN(C)C2CCCN(S(=O)(=O)c3ccccc3)C2)cc1OC (stereo not given)	0.0	-3.1	-3.8	11.5	-1.0	-0.1%
CCCCC(=O)NC(=S)Nc1ccc(Cl)c(C(=O)O)c1	0.0	11.7	-4.6	5.8	0.0	0.0%
CC(C(=O)Nc1ccccc1)n1nnc2sc3c(c2c1=O)CCCC3 (stereo not given)	1.3	.	.	4.5	.	3.2%
CCOC(=O)NNC(=O)c1[nH]c2ccc(Br)cc2c1-c1ccccc1	2.0	1.6	-11.4	9.5	9.3	2.8%
CC1CC(=O)N(CC(=O)NCc2ccc(F)cc2)c2ccccc2S1(=O)=O (stereo not given)	-0.3	3.2	-1.7	11.0	2.0	0.9%
(more compounds)
SMILES	TRPML1 agonist	Six1-Eya2 blk	D2 potentiator	TRPML1 blocker	D2 ag	PINK1 expr mod
O=C(COC(=O)COc1cccc2ccccc12)NCC(F)(F)F	0.4	0.7	4.7	8.6	-1.6	-0.4%
COc1ccc(Cl)cc1NC(=O)COC(=O)c1c(-c2ccccc2)noc1C	0.2	-0.1	-2.9	10.9	-3.2	-1.2%
CCC(C)(C)C1CCc2[nH]nc(C(=O)NCCN3CCOCC3)c2C1 (stereo not given)	-0.3	0.3	-2.4	-2.6	-1.8	-1.8%
COc1ccc(C(=O)OCC(=O)c2c(N)n(C)c(=O)n(C)c2=O)cc1OC	0.4	1.6	-0.9	-12.5	-5.7	-0.1%
Cc1cccc(C(=O)Oc2ccc3ccc(O)cc3c2)c1	-0.6	-2.4	-53.0	29.2	5.5	0.9%
COC(=O)[C@H](Cc1ccccc1)NC(=O)Cn1cnc2c(OCc3ccccc3)ncnc21	0.4	1.4	-1.6	-5.9	0.7	-0.7%
O=C(Nc1ccc(Cc2ccncc2)cc1)c1ccc(S(=O)(=O)N2CCCC2)cc1	-0.6	1.9	-3.6	9.4	?	-1.0%
CCCS(=O)(=O)N1CCN(S(=O)(=O)c2ccc(F)cc2)CC1	1.3	9.4	0.3	4.0	-1.8	-0.7%
[O-][n+]1ccccc1/C=C/c1ccccc1	-0.6	22.7	-5.2	1.9	-4.2	-0.1%
C#CCOCCOCCOCCNc1nc(N2CCOCC2)nc(N2CCN(C(=O)[C@H](CCCCN)n3cc(CN)nn3)CC2)n1	-0.2	2.9	-73.4	-6.1	0.0	-0.6%
O=C(CSc1cccc[n+]1[O-])c1cc2ccccc2o1	0.1	6.7	0.1	12.3	-6.1	-0.9%
COC(=O)CCS(=O)(=O)c1nc(-c2ccccc2)cc(C(F)(F)F)n1	-0.2	0.5	-32.7	3.7	-9.6	-4.7%[38.3 µM]
COc1ccc(C2=NN(Cc3c(F)cccc3Cl)C(=O)CC2)cc1	1.5	0.5	-11.2	12.3	-0.8	-0.4%

As entered above.
CCN1C(=O)c2ccc(C(=O)NCc3ccco3)cc2C1=O in TRPML1 blocker = 11.8
N#Cc1ccc(C23OCCN2CCn2c3c3ccccc3[n+]2[O-])cc1 (stereo not given) in TRPML1 blocker = -7.7

Bioassay records from PubChem.
